Source: PubChem BioAssay (National Center for Advancing Translational Sciences (NCATS))
Menin-MLL FL inh: qHTS Assay for Inhibitors Targeting the Menin-MLL Interaction in MLL Related Leukemias: Competition With Fluorescein Labeled MLL-derived Peptide. Fluorescence polarization, fluorescein-MLL peptide displacement from menin. AID 1766, 2009. FP activity change, % at 61.4 µM. 290,000 tested, under 10 active; inconclusive = falling polarisation curve, or a change in total fluorescence; inactive = total fluorescence flat and polarisation flat or rising; no compound was filed as active; the % refers to the polarisation; negative = inhibition;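 also: % of control where 0% means no effect; inhibitors lower the polarisation; unlabelled MLL peptide was the positive control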
Sfp inh: qHTS Assay for Inhibitors of Bacillus subtilis Sfp phosphopantetheinyl transferase (PPTase) | 4'-phosphopantetheinyl transferase ffp (Bacillus subtilis), Q9F4F7 | Biochemical Sfp PPTase activity, qHTS | Potency, µM, for the others: max response, negative = inhibition, usual class: inhibitors | hit rate 3.5% among 310,000; active = well fitted inhibition curve with a large enough effect; inconclusive = small, poorly fitted or top-dose-only effect, or another doubt; inactive = no such curve, though single readings can be large or run the other way;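 also: the enzyme is Sfp with the accession as filed and its product quenches rhodamine fluorescence; potency is read from the fitted curve at half-maximal effect; 0% = enzyme reaction without inhibitor and -100% = no enzyme wells; top concentration of the series not given in the record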
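With Hepes-Na pH 7.6 buffer containing 10 mM MgCl2, Sfp (15 nM) modified BHQ-2-YbbR (12.5 uM) using rhodamine-CoA (5 uM). Two reads 30 minutes apart at 525/598 nm yielded each well's rate.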
gsp ag: qHTS for Agonist of gsp, the Etiologic Mutation Responsible for Fibrous Dysplasia/McCune-Albright Syndrome: qHTS; gsp mutant cells, cAMP HTRF, 30 min; control for the full effect not named in the record; Potency, µM (series often up to 76.9 µM), without a hit: top-dose activation (cAMP increase), hits mostly activators; hit rate 0.13% among 340,000; active = well fitted activation curve with a large enough effect; inconclusive = small, poorly fitted or top-dose-only effect, or another doubt; inactive = no such curve, though single readings can be large or run the other way; cell line not stated here;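 also: phosphodiesterase inhibitor Ro 20-1724 added with compounds to block cAMP breakdown; potency is read from the fitted curve at half-maximal effect; nearly all actives have a fitted effect of over 60% in size; about a fifth of the inactives were tested at one dose only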
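Cells stably selected in G418 were plated at 2000/well, grown 16-24 hr, then given compounds in DMSO with the PDE inhibitor […] (300 uM solution added) for 30 min at 37C; cAMP was read by HTRF.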
TRPML1 blocker: qHTS for Inhibitors of the Human Mucolipin Transient Receptor Potential 1 (TRPML1); hit rate 0.02% among 390,000; Mucolipin-1 (Homo sapiens), Q9GZU1; activity change, negative = inhibition, % (no concentration beside the values); TRPML1-inducible cells, Ca2+ dye fluorescence, FDSS; active compounds read low; inhibition of EC80 agonist-evoked calcium signal; in the data active means activity change below about -50%; inconclusive means about -30% to -50%; inactive means above about -30%;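 also: stimulus is agonist 54-4 at its EC80 concentration; % is scaled to controls: 0 for no effect and ±100 for the full control effect; compound concentration not given in the record; the text of the record puts the active cut at -80%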
Target sequence (Q9GZU1 whole entry, looked up): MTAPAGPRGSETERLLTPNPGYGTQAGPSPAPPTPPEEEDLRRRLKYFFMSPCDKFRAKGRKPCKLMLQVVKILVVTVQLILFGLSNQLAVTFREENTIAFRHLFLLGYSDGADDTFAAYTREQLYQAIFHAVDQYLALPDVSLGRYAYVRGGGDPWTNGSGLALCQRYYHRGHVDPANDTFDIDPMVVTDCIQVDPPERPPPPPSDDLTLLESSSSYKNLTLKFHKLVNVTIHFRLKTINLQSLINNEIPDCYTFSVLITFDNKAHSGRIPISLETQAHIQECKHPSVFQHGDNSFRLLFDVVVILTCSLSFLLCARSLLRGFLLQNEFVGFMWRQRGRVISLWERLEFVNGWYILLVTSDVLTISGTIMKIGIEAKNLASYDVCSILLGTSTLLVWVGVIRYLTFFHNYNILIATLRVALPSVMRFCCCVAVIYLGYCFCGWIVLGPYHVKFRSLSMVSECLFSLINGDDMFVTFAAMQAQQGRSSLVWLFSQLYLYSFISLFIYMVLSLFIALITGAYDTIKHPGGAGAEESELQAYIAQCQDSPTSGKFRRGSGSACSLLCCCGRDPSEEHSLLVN
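TRPML1-DL cells, Tet-induced overnight (~16 h, 37 °C) at 1,500 cells/well, were loaded with Ca8 no-wash dye plus quencher for 45-90 min at room temperature. Compounds were pinned during FDSS kinetic reading; agonist 54-4 at EC80 (4 uM final) then added.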
TRPV1 potentiator: HTS Assay for Compounds that Act as Potentiators of the Vanilloid Receptor 1; TRPV1-expressing cells, Fluo-8 calcium influx, capsaicin EC20 potentiation; host cell line not named in the record; control for the full effect not named in the record; potentiation, % at 8.33 µM; Transient receptor potential cation channel subfamily V member 1 (Homo sapiens), Q8NER1; hit rate 0.02% among 320,000; AID 540277, 2011; active means potentiation above 80%; inconclusive means 30% to 80%; inactive means below 30%; also: 0% is about no effect
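TRPV1-expressing cells were cultured overnight at 35.5C and loaded with Fluo-8 calcium dye for 40 to 90 min at room temperature. After a 10 s baseline, compound was added and calcium influx was read kinetically for 3 min (ex 480/em 520 nm).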
ClpP mod: qHTS Assay for Activators of ClpP. ATP-dependent Clp protease proteolytic subunit (Bacillus subtilis (strain 168)), P80244. Potency, µM (series often up to 57.5 µM), for the others: top-dose activity change, negative = active. AID 651965, 2013. purified B. subtilis ClpP, FRET peptide cleavage, 20 min. hit rate 1.9% among 340,000; active = well fitted falling curve with a large enough effect; inconclusive = small, poorly fitted or top-dose-only effect; inactive = no such curve, though single readings can be large or run the other way; also: potency is read from the fitted curve at half-maximal effect; the source files actives as falling curves though it sought activators and does not explain the sign; nearly all actives have a fitted effect of over 65% in size; many hits overshoot -100%
Target sequence (P80244 whole entry, looked up): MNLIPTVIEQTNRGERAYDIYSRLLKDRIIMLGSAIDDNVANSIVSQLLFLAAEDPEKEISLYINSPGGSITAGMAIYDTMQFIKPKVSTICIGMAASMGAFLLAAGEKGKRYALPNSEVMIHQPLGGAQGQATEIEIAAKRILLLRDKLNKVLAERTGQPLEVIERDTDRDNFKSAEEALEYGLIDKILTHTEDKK
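FRET quenching reversal measured ClpP activation: 10 microg/mL B. subtilis ClpP at pH 8 with the FRET-FV decapeptide, read at 430 nm after 320 nm excitation. The 20-min minus 0-min signal was scaled between DMSO/no-enzyme wells and ADEP (5.8 microM final).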
gsp antagonist: qHTS for Antagonists of gsp, the Etiologic Mutation Responsible for Fibrous Dysplasia/McCune-Albright Syndrome: qHTS; gsp-mutant cells, cAMP HTRF, 30 min; control for the full effect not named in the record; Potency, µM (series often up to 76.9 µM), without a hit: top-dose activity change, negative = inhibition, usual class: inhibitors; hit rate 0.4% among 340,000; AID 624288, 2012; active = falling curve of any shape with a large fitted effect; inconclusive = falling curve, mostly with a smaller effect; inactive = flat or rising curve; cell line not stated here;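 also: intracellular cAMP measured with PDE inhibitor Ro 20-1724 present during compound exposure; potency is read from the fitted curve at half-maximal effect; % is scaled to controls: 0 for no effect and ±100 for the full control effect; nearly all actives have a fitted effect of over 65% in size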
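Measurement of cellular cAMP by homogeneous time-resolved fluorescence following a 30 min compound exposure at 37C. The PDE inhibitor […] was present throughout; the assay buffer was DPBS with 0.05% BSA and 0.005% Tween 20.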
The depositor's hits bear a star; ? = inconclusive; · = not tested or not shown; & = joins results of further samples; [ ] = dose if it differs, or a comment. Compounds as they come; 4.9% or so of the library scored in one or more.

SMILES | Menin-MLL FL inh | Sfp inh | gsp ag | TRPML1 blocker | TRPV1 potentiator | ClpP mod | gsp antagonist
Cc1ccc(C(C)C)c(OCC(=O)NN2C(=O)c3ccccc3C2=O)c1 | 0.7 | 0% | -11% | 7 | -1 | 0.4% | -7%
CCCN1C2CCCC1CC(NC(=O)c1cc(OC)c(OC)c(OC)c1)C2 (stereo not given) | 2.3 | 8% | ? | 19 | 6 | -2.6% | 19%
CSc1c(C#N)c(N)c(C#N)c2c1COC(C)(C)C2 | 0.2 | 4% | -3% | -4 | -6 | 14µM* | -1%
Cc1nnc(SCC(=O)Nc2ccc(-c3nc4ccccc4s3)cc2)s1 | 6.4 | 2% | -10% | 0 | 3 | -12% | -5%
O=C(CSc1nnc(-c2cccnc2)n1C1CCCCC1)NC1CCCCC1 | 3.4 | -8% | 4% | -25 | 2 | -1.1% | -14%
Cc1ccc(NC(=O)CSc2nccn2Cc2ccco2)c(C)c1 | 0.2 | -7% | 11% | 18 | 8 | -1.1% | 6%
CCc1ccc(NC(=O)C2CCCN(S(=O)(=O)c3ccc4c(c3)CCCN4C(C)=O)C2)cc1 (stereo not given) | -2.0 | 10% | 15% | 5&-5 | 4 | 0.7%&-1.6% | -28%
O=C(NCC1CCCO1)C1CCN(C(=O)c2ccc(Br)cc2)CC1 (stereo not given) | 2.9 | 12% | -74%[inhibitor] | -17 | 0 | 0.6% | 2%
COC(=O)C1CCN(S(=O)(=O)c2cn(C)c(=O)n(C)c2=O)CC1 | -1.1 | 16% | -34%[inhibitor] | 3 | 11 | 1.8% | 11%
O=C(C1=C[C@@H](c2coc3ccccc3c2=O)C[C@@H](OCCCCO)O1)N1CCN(Cc2ccc3c(c2)OCO3)CC1 | -1.8 | 5% | 12% | 12 | 1 | -2.6% | -18%
COc1cc(C(=O)N2CCN(CCCc3ccccc3)CC2)cc(OC)c1OC | · | · | -5%[15.4 µM] | -1 | · | 0.3% | 5%
CCCCC(=O)NC(Nc1cc(C)ccn1)(C(=O)OCC)C(F)(F)F (stereo not given) | 0.2 | -4% | -3% | -6 | · | 25µM* | -16%
CC1=NN(C(=O)c2ccccc2F)C(O)(c2ccc(Cl)cc2)C1 (stereo not given) | -9.0 | 14% | 2% | 22 | 2 | -3.2% | -1%
CCOc1ncccc1C(=O)N1CCN(c2cccc(C)c2C)CC1 | 0.1 | 8% | 9%[15.4 µM] | 23 | -24 | · | 7%
CCOC(=O)C1CCN(CC(=O)N2C(C)CCCC2C)CC1 (stereo not given) | 0.8 | ? | 21% | 7 | 0 | 0.1% | 2%
COc1cc(/C=N/NC(=O)c2ccc3nc[nH]c3c2)cc(OC)c1OC | -0.5 | 7% | -5%[15.4 µM] | -12 | 4 | · | -2%
CCOC(=O)N1CCC(N2C(=O)c3ccccc3C2Nc2ccc(S(=O)(=O)N3CCCCC3)cc2)CC1 (stereo not given) | 4.9 | -12% | · | · | -7 | · | ·
COc1ccc(NC(=O)CN(C)C(=O)CCCc2c[nH]c3ccccc23)cc1 | · | · | 0%[15.4 µM] | 1 | 22 | -18% | 0%
O=C(c1cc(Cl)cc(Cl)c1)N1CCOCC1 | 3.1 | 13% | 15% | 5 | 1 | 1.0% | -1%
Cc1ccccc1NC(=O)c1ccc(CN2CCC(Cc3ccccc3)CC2)cc1 | -1.8 | 10% | -31%[inhibitor] | 45 | -13 | 1.0% | 6%
COC(=O)C(C)NC(=O)C12CC3CC(CC(C3)C1)C2 (stereo not given) | -0.6 | 17% | -2% | -3 | 14 | -3.9% | -8%
O=C(c1ccco1)N1CCN(C(=O)c2ccc(Br)o2)CC1 | · | · | 25% | -7 | · | 1.8% | ·
Cc1[nH]n(-c2ccccc2)c(=O)c1C=NCc1ccco1 | 4.0 | 13% | · | · | 2 | · | ·
O=S(=O)(Nc1ccccc1)c1ccc(S(=O)(=O)N2CCCC2)cc1 | · | · | -19% | 19 | -3 | 1.3% | -13%
COc1cccc(C(=O)Nc2ccc(NC(=O)c3ccco3)c(Cl)c2)c1 | 5.0 | -5% | -7%[15.4 µM] | -5 | 3 | · | -22%
COC(=O)c1cc(NC(=O)c2ccc(OC)cc2)c(=O)oc1C | -25 | -13% | 22%[15.4 µM] | -1 | -8 | · | -3%
CCOc1ccc(N2C(=O)S/C(=C\c3ccc(O)c(OCC)c3)C2=O)cc1 | ? | 8% | ? | 19 | -1 | -3.1% | -28%
COCCCNC(=O)COc1ccc(S(=O)(=O)Nc2ccccc2)cc1 | 2.9 | 16% | -48%[inhibitor] | -13 | 2 | -6.2% | 6%
CC(C)=CCc1c2c(c3occ(-c4ccc(O)c(O)c4)c(=O)c3c1O)C=CC(C)(C)O2 | -0.6 | 37% | -10% | -5 | · | 0.5% | ?
COc1ccc(CCn2c(NCCCN3CCOCC3)nc3c2c(=O)[nH]c(=O)n3C)cc1 | -1.8 | 8% | -13% | 3 | -1 | -1.0% | -3%
Cc1cccn2c(=O)c(C(=O)NC3CCCCC3)c(O)nc12 | -0.1 | 8% | ? | 8 | 0 | -13% | -4%
Cc1nnc(SC(C)C(=O)NC2CCCCC2C)s1 (stereo not given) | · | · | -3%[15.4 µM] | -8 | -2 | -2.4% | 7%
COc1cccc(-c2cc(C(=O)NCc3ccco3)c3ccccc3n2)c1 | 0.0 | -20% | -45%[inhibitor] | -6 | -3 | · | -2%
O=c1[nH]c2ccc(Cl)cc2c(-c2ccccc2)c1SC(=S)N1CCOCC1 | 4.9 | 11µM* | -19% | -16 | 1 | 1.9% | -10%
CCNC(=O)/C(C#N)=C/c1c(N2CCN(c3cccc(Cl)c3)CC2)nc2c(C)cccn2c1=O | 1.5 | -3% | 26% | · | 8 | -20% | -8%
Cn1c(=O)c2cc(S(=O)(=O)NCCC(=O)NCCc3ccc(Cl)cc3)ccc2n(C)c1=O | 9.5 | 15% | -13% | 34 | -6 | -17% | -19%
COCCN(C(=O)c1ccccc1OC1CCN(S(C)(=O)=O)CC1)C(C)C | 2.8 | 8% | -5% | 5 | 0 | 0.0% | 4%
COc1ccc(OC)c(C(C)NC(=O)c2ccco2)c1 (stereo not given) | 2.5 | 3% | -62%[inhibitor] | -9 | 5 | -0.4% | 1%
NC(=S)N/N=C/c1ccccc1OC(=O)/C=C/c1ccccc1 | · | 17% | 6% | 6 | -8 | -1.9% | 5%
Cc1cc(NC(=O)C2CC(=O)N(c3ccccc3)C2)no1 (stereo not given) | -2.0 | 9% | -33%[inhibitor] | -2 | -6 | 0.4% | 12%

Arranged by molar mass (descending): part of the list above
SMILES | Menin-MLL FL inh | Sfp inh | gsp ag | TRPML1 blocker | TRPV1 potentiator | ClpP mod | gsp antagonist
COCCN(C(=O)c1ccccc1OC1CCN(S(C)(=O)=O)CC1)C(C)C | 2.8 | 8% | -5% | 5 | 0 | 0.0% | 4%
O=S(=O)(Nc1ccccc1)c1ccc(S(=O)(=O)N2CCCC2)cc1 | · | · | -19% | 19 | -3 | 1.3% | -13%
NC(=S)N/N=C/c1ccccc1OC(=O)/C=C/c1ccccc1 | · | 17% | 6% | 6 | -8 | -1.9% | 5%
Cc1[nH]n(-c2ccccc2)c(=O)c1C=NCc1ccco1 | 4.0 | 13% | · | · | 2 | · | ·

The listing continues.
SMILES | Menin-MLL FL inh | Sfp inh | gsp ag | TRPML1 blocker | TRPV1 potentiator | ClpP mod | gsp antagonist
O=C(Nc1ccccc1SCC1CSc2nc3ccccc3c(=O)n21)c1ccccc1 (stereo not given) | -1.0 | -3% | 0% | 6 | ? | 1.7% | -12%
COCCN(C(=O)COC(=O)c1ccc(Cl)s1)c1c(N)n(Cc2ccccc2)c(=O)[nH]c1=O | · | · | 12% | 23 | -5 | 0.9% | -2%
CC(C)NS(=O)(=O)c1ccc(CCC(=O)NCc2ccco2)cc1 | 7.6 | 3% | ? | 5 | 3 | 1.3% | 1%
Cc1ccc(S(=O)(=O)N(C)C[C@@H]2Oc3ncc(C#CCC(C)C)cc3C(=O)N([C@H](C)CO)C[C@H]2C)cc1 | · | · | -33% | 29 | · | -4.2% | ·
COc1ccccc1N=C1SC(C(=O)Nc2cccc(Cl)c2Cl)C(N)=C1C(N)=O (stereo not given) | 0.4 | -24% | 2%[15.4 µM] | -6 | -5 | · | -12%
CNC(=O)c1ccccc1Sc1cccc2cccc(C(=O)O)c12 | 0.1 | 12% | -4% | 8 | -1 | -1.0% | 8%
Cc1nn(-c2ccccc2)c(C)c1C(=O)OCC(=O)Nc1ccccc1 | · | · | -26% | -7 | -4 | -18% | -6%
COc1ccc(C=CC(C)=NNC(=O)c2ccncc2)cc1 | · | · | -7%[15.4 µM] | 5 | · | -0.3% | -18%
Cc1cc(=O)oc2cc(NC(=O)C(C)Oc3cccc(Cl)c3)ccc12 (stereo not given) | · | · | 4% | 3 | 14 | 10µM* | 1%
Cc1cnc(C(=O)OCC(=O)NCc2ccc3c(c2)OCO3)cn1 | -3.3 | 4% | -19%[15.4 µM] | 2 | 12 | · | 10%
COc1ccc(C)cc1S(=O)(=O)N1CCN(Cc2ccccc2)CC1 | -0.2 | -3% | -89%[inhibitor] | 3 | -21 | -0.5% | -7%
O=C(COc1ccc2ccc(=O)oc2c1)Nc1cccc(S(=O)(=O)N2CCCCC2)c1 | · | · | ? | 2 | -8 | 35µM* | 28µM*
